# miR-21 FLuc – raises the signal of a miR-21 reporter | HeLa miR-21 FLuc reporter, luciferase, 48 h | Potency, µM (top dose mostly 38.3 µM), inactives show at the top dose reporter change, positive = more light | 340,000 tested, under 10 active; active = well fitted rising curve with a large enough effect; inconclusive = small, poorly fitted or top-dose-only effect; inactive = no such curve, though single readings can be large or run the other way;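 also: % of control where 0% means no effect; miR-21 action dims this reporter so a rising signal means less miR-21 action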
#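 Luminescence from a firefly luciferase reporter carrying a miR-21 binding site downstream, stably expressed under a CMV promoter in HeLa cells that make miR-21 endogenously, reports miRNA modulation after 48 h compound exposure up to approximately 40uM final.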
# Rango-impB inh – prevents formation of the Rango-importin beta complex; Potency, µM (doses to about 92.2 µM), without a hit: at the highest dose inhibition of complex formation; AID 540263; Rango CFP/YFP FRET sensor + importin beta, 45 min; 0.031% of 340,000 active; active = rising FRET ratio curve, often small or poorly fitted; inconclusive = mostly compound fluorescence or quenching in the first reads; inactive = flat curves in all reads;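 also: potency is read from the fitted curve at half-maximal effect; 0% = DMSO wells and 100% = buffer wells lacking importin beta; nearly all actives have a fitted effect of over 15% in size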
# Target sequence (Q14974 whole entry, looked up): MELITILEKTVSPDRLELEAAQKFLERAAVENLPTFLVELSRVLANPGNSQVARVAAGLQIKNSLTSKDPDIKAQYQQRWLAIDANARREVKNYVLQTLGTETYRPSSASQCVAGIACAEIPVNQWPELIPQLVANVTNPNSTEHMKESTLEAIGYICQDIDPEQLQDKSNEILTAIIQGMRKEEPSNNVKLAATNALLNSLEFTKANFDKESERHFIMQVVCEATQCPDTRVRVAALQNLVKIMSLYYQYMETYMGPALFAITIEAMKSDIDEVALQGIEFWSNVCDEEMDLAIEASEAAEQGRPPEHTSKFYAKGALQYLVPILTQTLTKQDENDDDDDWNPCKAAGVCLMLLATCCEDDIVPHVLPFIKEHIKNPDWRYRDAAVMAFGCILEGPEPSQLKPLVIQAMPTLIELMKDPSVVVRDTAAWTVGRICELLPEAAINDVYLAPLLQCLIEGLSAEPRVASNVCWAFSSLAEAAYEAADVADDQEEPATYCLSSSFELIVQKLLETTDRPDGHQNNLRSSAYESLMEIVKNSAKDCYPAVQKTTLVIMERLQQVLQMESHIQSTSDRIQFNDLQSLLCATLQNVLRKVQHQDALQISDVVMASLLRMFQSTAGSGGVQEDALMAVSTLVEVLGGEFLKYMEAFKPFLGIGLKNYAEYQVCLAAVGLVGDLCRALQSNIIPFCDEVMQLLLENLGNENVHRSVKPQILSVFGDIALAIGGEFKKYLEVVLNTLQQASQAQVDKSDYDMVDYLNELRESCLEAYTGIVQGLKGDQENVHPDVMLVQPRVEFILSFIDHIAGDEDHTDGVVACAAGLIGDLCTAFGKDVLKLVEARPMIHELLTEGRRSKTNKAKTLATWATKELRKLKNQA
#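 FRET biosensor Rango (snurportin 1 IBB between N-terminal EYFP and C-terminal Cerulean), 50 nM in PBS/1 mM DTT/0.02% Tween-20/0.1% BSA, preincubated 5 min RT with compound; 0.125 microM importin beta added, 45 min RT, CFP/YFP FRET ratio read.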
# Rango dissoc inh – inhibition of RanGTP-driven Rango-importin beta dissociation | AID 540253 | Potency, µM (highest dose often 46.1 µM), without a hit: at the top dose activity change, negative = inhibition | 0.071% of 340,000 active | Biochemical FRET Rango-importin beta, RanGTP-induced dissociation | O95149+P62826; active means falling FRET ratio curve, often poorly fitted, with flat reads before Ran was added; inconclusive means other falling curves, or compound fluorescence or quenching; inactive means flat or rising ratio curve;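 also: potency is read from the fitted curve at half-maximal effect; % of control where 0% means no effect; nearly all actives have a fitted effect of over 45% in size; -100% = wells without RanGTP and RCC1; the record marks most hits as doubtful in a second field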
#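 Rango FRET biosensor (snurportin-1 IBB flanked by N-terminal EYFP and C-terminal CFP10) at 0.1 uM, with 0.25 uM importin beta in PBS, 1mM DTT, 0.02% Tween-20, 0.1% BSA. 0.6 uM Ran, 2mM GTP and 0.2 uM RCC1 were then added for 45 min at room temperature. Inhibition read as loss of FRET rise.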
# GLA inh pH 4.5 – alpha-galactosidase A (human) inhibition, pH 4.5 | P06280 | purified enzyme, 4-MU-alpha-Gal fluorescence, pH 4.5 | activity change, negative = inhibition, % at 105 µM | 230,000 tested, under 10 active; inconclusive = small, poorly fitted or top-dose-only inhibition, or a rising curve; inactive = flat fitted curve, though single readings scatter; no compound was filed as active;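 also: 0% = full activity with enzyme and -100% = basal without enzyme; dose as in the result columns while the protocol names 77 µM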
# The depositor's hits bear a star; ? = inconclusive; nt = no result given; & = joins results of further samples; [ ] = another dose, or the depositor's remark. Some of the compounds tested. The share of hits here may be higher or lower than overall.
# Values run as follows: miR-21 FLuc	Rango-impB inh	Rango dissoc inh	GLA inh pH 4.5
- CSc1nnc(C)c(/C=C/Nc2ccc(C)cc2)n1
 : -9%	?	?	-1
- CS(=O)(=O)N1CCN(C(=O)c2cc3ccccc3oc2=O)CC1
 : -15%	-2.1%	3%	-4
- CCN(CC(=O)NC)S(=O)(=O)c1ccc(Br)cc1
 : -7%	1.5%	-10%	-9
- COc1cc(CC(=O)Nc2ccc(S(=O)(=O)N(C)C)cc2)cc(OC)c1OC
 : 0%	-2.2%	-14%	1
- COC(=O)N/N=C(C)\C=C\c1ccco1
 : -16%	?	-13%	2
- CCOC(=O)N1CCN(C(=S)NC(=O)C2CCCC2)CC1
 : 0%	2.5%	-8%	7
- O=c1c2ccccc2nnn1COc1cccc2ccccc12
 : -83%	0.2%	12%	-2
- Cc1ccc(N2C(S)=C(C#N)C(=O)NC2c2cccs2)cc1 (centres undefined)
 : 0%	0.0%	3%	-1
- CCC(C(=O)Nc1cc(Cl)ccc1OC)c1ccccc1 (centres undefined)
 : -8%	1.5%	0%	-11
- CSCCC(NS(=O)(=O)c1cccs1)C(=O)NCc1ccccc1 (centres undefined)
 : -2%	0.1%	2%	2
- CCCCn1c(N)c(N(CCOC)C(=O)COC(=O)CSc2cc(C)c3ccccc3n2)c(=O)[nH]c1=O
 : nt	-5.7%	-5%	nt
- C[C@@H](C(=O)N[C@@H](Cc1ccccc1)C(=O)O)n1nnc2ccccc2c1=O
 : -1%	-0.2%	-6%	3
- O=C(c1ccc(N2CCN(C3CC(=O)N(Cc4cccs4)C3=O)CC2)cc1)c1cccnc1 (centres undefined)
 : 20%	-2.3%	-1%	-7
- Fc1ccc(-n2cc(-c3ccccc3)[n+]3c2SCC3)cc1
 : 4%	0.0%	-3%	-6
- Cc1c(C(=O)NCc2ccco2)oc2ccc(S(=O)(=O)N3CCC4(CC3)OCCO4)cc12
 : 1%	-4.4%	-6%	6
- Cc1noc(C)c1C(=O)Nc1ccccc1C(=O)NCCc1ccccc1
 : 9%	-0.6%	-2%	nt
- CCOC(=O)N1CCN(C(=O)Cc2cccc3ccccc23)CC1
 : 0%	1.3%	3%	3
- O=C(CSc1nnc(COc2ccc(Cl)cc2)o1)NC1CCCCC1
 : nt	1.0%	3%	nt
- COc1cccc(OC)c1C(=O)Nc1ccccc1C(=O)N1CCCC1
 : 1%	1.0%	1%	nt
- Fc1ccc(CNC(=S)Nc2ccc(Cl)cc2Cl)cc1
 : -1%	?	11%	-2

# Quoted at random: five records from the list.
# Values run as follows: miR-21 FLuc	Rango-impB inh	Rango dissoc inh	GLA inh pH 4.5
- Cc1c(C(=O)NCc2ccco2)oc2ccc(S(=O)(=O)N3CCC4(CC3)OCCO4)cc12
 : 1%	-4.4%	-6%	6
- CCOC(=O)N1CCN(C(=O)Cc2cccc3ccccc23)CC1
 : 0%	1.3%	3%	3
- Fc1ccc(CNC(=S)Nc2ccc(Cl)cc2Cl)cc1
 : -1%	?	11%	-2
- CCOC(=O)N1CCN(C(=S)NC(=O)C2CCCC2)CC1
 : 0%	2.5%	-8%	7
- Cc1noc(C)c1C(=O)Nc1ccccc1C(=O)NCCc1ccccc1
 : 9%	-0.6%	-2%	nt

# Next section.
# Values run as follows: miR-21 FLuc	Rango-impB inh	Rango dissoc inh	GLA inh pH 4.5
- O=C(NCc1ccco1)c1cc(S(=O)(=O)N2CCCCC2)ccc1Cl
 : nt	-0.3%	-5%	nt
- Cn1nc(C(F)(F)F)c(-c2ccc(Br)cc2)c1NC(=O)c1cccnc1
 : 9%	7.0%	0%	0
- O=C(CSc1nc2nn(-c3ccccc3)c(=O)c-2c2n1CCCCC2)Nc1ccc(OC(F)F)cc1
 : nt	0.9%	1%	nt
- O=C(CSC1CC(=O)N(CCc2ccccc2)C1=O)Nc1ccc(Br)cc1 (centres undefined)
 : -3%	2.9%	8%	3
- O=C(NCC(c1cccs1)N1CCOCC1)c1cc([N+](=O)[O-])cc([N+](=O)[O-])c1 (centres undefined)
 : -4%	-0.4%	12%	3
- O=C(Nc1ccccc1)c1n[nH]c(Cn2cncn2)n1
 : 2%	-7.2%	12%	7
- O=[N+]([O-])c1ccc(CSc2nc3ccccc3[nH]2)cc1
 : -17%	-0.8%	9%	-5
- Cc1cc(C)n2nc(Sc3ncccc3[N+](=O)[O-])nc2n1
 : -9%	1.0%	10%	-11
- CCC(C)(C)C1CCc2[nH]nc(C(=O)O)c2C1 (centres undefined)
 : nt	3.5%	-13%	nt
- COC(=O)c1cn(S(=O)(=O)c2ccccc2)c2ccccc12
 : -4%	2.0%	17%	nt
- CCOCCCN1C(=O)C(=O)N(CC(=O)N2c3ccccc3NC(=O)CC2C)C1=O (centres undefined)
 : nt	-0.3%	2%	nt
- Cn1c(-c2sc3cc(C(F)(F)F)cnc3c2-c2cccs2)n[nH]c1=S
 : 2%	6.4%	-13%	-8
- O=c1[nH]c2ccc([N+](=O)[O-])cc2nc1/C=C(\O)c1ccccc1
 : -4%	?	?	4
- COC(=O)C1=C(C)NC(=O)NC1c1ccc(-c2ccc(F)cc2)o1 (centres undefined)
 : -10%	-1.0%	-10%	7[21.1 µM]
- CC(C)(C)c1nnc(NC(=O)CCS(=O)(=O)c2ccccc2)s1
 : 3%	0.0%	20%	nt
- O=C(NCCCCNC(=O)c1ccc(Br)s1)c1ccc(Br)s1
 : -3%	3.8%	22%	-3
- CN(C)S(=O)(=O)Nc1cccc(Br)c1
 : 4%&-7%	0.1%	0%	0&-2
- O=C(O)Cn1c2c(c3ccccc31)CCCC2
 : -4%	?	?	-6
- COC(=O)C(C)N1CCC(=O)c2ccccc2S1(=O)=O (centres undefined)
 : -4%	-0.4%	16%	11
- O=C(O)c1ccc2c(c1)S(=O)(=O)c1ccccc1C2=O
 : 1%	6.4%	5%	nt
- COc1ccc(S(=O)(=O)N2CCCCC2)cc1NC(=O)CN(Cc1ccco1)Cc1ccco1
 : nt	-4.0%	8%	nt
- C=CCNC(=S)N1N=C(c2ccco2)CC1c1ccco1 (centres undefined)
 : nt	-3.1%	-3%	nt
- Cc1cc(C)n2nc(-c3ccccc3)c(-c3ccccc3)c2n1
 : -2%	-1.7%	2%	nt
- CC(C)C12CN3CC(C(C)C)(CN(C1)C3c1ccco1)C2=O (centres undefined)
 : -2%	0.2%	-1%	2
- O=C(C1CCCN(S(=O)(=O)c2ccc(F)cc2)C1)N1CCOCC1 (centres undefined)
 : nt	-2.2%	3%	nt
- Cn1c(O)c(C=Nc2ccc(Br)cc2)sc1=O
 : -38%	-2.0%	-8%	-9
- COc1cc(NC(=O)Nc2c(C)n(C)n(-c3ccccc3)c2=O)cc(OC)c1OC
 : 2%	5.7%	5%	nt
- Oc1ccc(C[C@@H]2CNCCN2CC2CCCCC2)cc1
 : nt	0.1%	14%	nt
- Oc1ccc(Br)cc1CNc1cccc2cccnc12
 : -3%	-3.2%	1%	nt
- CC(C)COc1ccc(-c2nnc(-c3ccncc3)o2)cc1
 : -36%	0.0%	?	6
- O=C(NC1CCCCC1)N1CCCc2ccccc21
 : -8%	?	1%	15
- COc1cccc(CNC(=O)CCn2c(=O)oc3ccccc32)c1
 : -8%	-1.1%	-16%	0
- COc1ccc(/C=C2/C(=O)C(C)(C(C)C)CCC2C)cc1 (centres undefined)
 : 1%	-4.8%	?	nt
- CCN(CC)c1ccc(S(=O)(=O)N2CCCCC2)cc1NC(=O)CN1C(=O)NC2(CCCC2)C1=O
 : nt	0.8%	14%	nt
- Cc1ccc(CN2[C@@H]3c4ccccc4C[C@@H]3OCCS2(=O)=O)cc1
 : 4%	0.5%	3%	nt
- COc1ccc(-c2c(C(C)=O)c(C)nc3sc4c(=O)[nH]nnc4c23)cc1
 : -22%	-3.6%	2%	2
- CC(C)CC(=O)NC(NC(=O)CC(C)C)c1cccc([N+](=O)[O-])c1
 : -1%	9.4%	4%	nt
- Cc1ccccc1CSCC(=O)NC(=O)NCc1ccco1
 : 0%	-6.1%	-15%	-8
- O=C(CSc1nnc(Cc2cccs2)n1C1CC1)NC1CCS(=O)(=O)C1 (centres undefined)
 : nt	-0.2%	12%	nt
- COC(=O)C1CN(C(=O)COc2ccc(Cl)cc2C)c2ccccc2O1 (centres undefined)
 : -2%	9.8%	4%	nt
- O=C(Nc1nc(-c2ccc(Cl)cc2)cs1)C1CCCO1 (centres undefined)
 : -44%	?	?	-1
- CCOc1ccc2[nH]c(=O)c(CN(CCO)C(=O)c3ccc(OC)c(OC)c3)cc2c1
 : -7%	-3.0%	3%	3
- O=C1NCCN(C(=O)CCc2nnc(-c3ccsc3)o2)C1c1ccc(F)cc1 (centres undefined)
 : -2%	0.5%	5%	8
- CC1([N+](=O)[O-])COC(c2cccc3ccccc23)OC1 (centres undefined)
 : nt	-1.7%	0%	nt
- COc1ccc(N2CCN(C(CNC(=O)C(=O)NCc3ccncc3)c3ccco3)CC2)cc1 (centres undefined)
 : 8%	-0.4%	-26%	-2
- COc1ccc(CCNCC(=O)Nc2ccccc2C(F)(F)F)cc1
 : -9%	0.0%	2%	-9
- COc1ccc(C(=O)/C=C/Nc2c(C)n(C)n(-c3ccccc3)c2=O)c(OC)c1
 : -5%	?	-12%	0
- Cc1cccn2c(=O)c(C=O)c(N3CCC4(CC3)OCCO4)nc12
 : -7%	-0.1%	0%	-8
- O=C(NC1CCS(=O)(=O)C1)c1cccnc1 (centres undefined)
 : -1%	nt	nt	13
- CC(C)c1cccc(C(C)C)c1NC(=O)c1ccccc1
 : -2%	2.2%	-10%	2
- CC(NC(=S)Nc1ccccc1C(F)(F)F)C1CC2CCC1C2 (centres undefined)
 : 1%	0.1%	3%	0
- CNCCCOc1cccc(Oc2ccccc2)c1
 : -33%	-0.7%	-3%	2
- O=S(=O)(N1CCOCC1)N1CCN(c2ccc(F)cc2)CC1
 : -2%	-2.2%	-3%	12
- CC(C)Cn1c(SCC(=O)N(C)C2CCS(=O)(=O)C2)nc2cc(Cl)ccc2c1=O (centres undefined)
 : nt	0.9%	1%	nt
- O=C(c1cccnc1)N(c1cc2sc(=O)oc2c2ccccc12)S(=O)(=O)c1ccccc1
 : 0%	-1.0%	4%	-12
- COc1ccc(/C=C2/CCOC2=O)cc1
 : -6%	?	?	2
- O=C(COc1ccccc1)Nc1nnc(-c2ccc(Cl)s2)o1
 : -7%	3.1%	-1%	-1
- Cc1cc(NC(=O)CSc2nccn2-c2ccc(F)cc2)no1
 : -3%	4.4%	2%	6
- COc1ccc(-n2nnnc2SCC(=O)NCc2ccco2)cc1OC
 : -4%	-1.0%	-12%	3
- O=C(Cn1nc(C(=O)O)c2ccccc2c1=O)Nc1ccc(Br)cc1
 : 1%	-3.2%	28%	nt

# Next structures
# Values run as follows: miR-21 FLuc	Rango-impB inh	Rango dissoc inh	GLA inh pH 4.5
- Cc1ccc(S(=O)(=O)N2CCN(Cc3ccccc3C(F)(F)F)CC2)cc1
 : 0%	13%	-11%	-7
- CC1=CC(C)(C)N(C(=O)CN2C(=O)c3ccccc3C2=O)c2ccc(C)cc21
 : -2%	-4.3%	-3%	15
- C=CCOC(=O)C1=C(C)OC(N)=C(C#N)C1c1ccco1 (centres undefined)
 : -1%	-0.9%	-2%	2
- Cc1ccc(NC(=O)c2ccccc2-c2cc(C)no2)cc1
 : -1%	5.6%	5%	3
- O=C(C1=C[C@@H](C2CCCCC2)C[C@@H](OCc2ccc(CO)cc2)O1)N1CCN(Cc2ccccc2)CC1
 : 20%	-2.7%	18%	-26
- O=C(Nc1ccon1)c1cc2c(s1)CCCCCC2
 : -50%	7.8%	0%	-5
- Cc1nc2scc(-c3ccccc3)c2c(=O)n1N=C1C=CC(=O)C=C1
 : -63%	-5.6%	0%	-1
- COc1ccc(OCC#CCN2CC(C)OC(C)C2)cc1 (centres undefined)
 : -1%	9.0%	9%	-8
- CCn1c(SCC(=O)c2ccc(F)cc2)nnc1-c1ccoc1C
 : -23%	-2.1%	-11%	-4

# Bioassay records (PubChem BioAssay)
